Vaccinia stage: blocks a specific stage of Vaccinia orthopoxvirus infection | Vaccinia-infected cells, mCherry/Venus stage reporter fluorescence; stronger effect = lower value; some inactives read as strong as hits | activity change (mCherry), % (concentration not given with the values) | actives 0.01% (n = 89,000) | AID 1053133;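 active = mCherry past -33% and 40 or more points under the early reporter, replicates agreeing; inconclusive = past -33% without that gap or agreement; tested in A549 cells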;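 also: scaled between vehicle wells and reference inhibitor wells; 23 nL library stock went into each well; one replicate is shown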
Vaccinia stage Venus: further read-out of Vaccinia stage, marked with its call; activity change (Venus), %; measured here: Venus reporter, other viral stage;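 negative = less Venus signal; first of two replicates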
Active calls of the source: *; ? = inconclusive; . = not tested or not shown. This is a subset. The share of hits here may be higher or lower than overall.

Structure	Vaccinia stage	Vaccinia stage Venus
C[C@@H]1CCCCO[C@H](CN(C)C(=O)Nc2ccc(F)cc2)[C@@H](C)CN([C@H](C)CO)C(=O)c2cc(NC(=O)CCC(F)(F)F)ccc2O1	18	12
CO[C@H]1CN(C)C(=O)c2ccc(NC(=O)C3CC3)cc2OC[C@H](C)N(Cc2ccccc2)C[C@H]1C	-18	-5
COc1ccc(NC(=O)N(C)C[C@H]2OCCCC[C@H](C)Oc3ccc(NC(=O)Nc4ccc5c(c4)OCO5)cc3C(=O)N([C@@H](C)CO)C[C@H]2C)cc1	13	6
CN1c2ccc(C#Cc3cccnc3)cc2[C@@H]2[C@@H](CCN2S(=O)(=O)c2ccccc2F)[C@@H]1CO	2	2
C[C@@H]1CCCCO[C@H](CN(C)C(=O)Nc2ccc(C(F)(F)F)cc2)[C@@H](C)CN([C@@H](C)CO)C(=O)c2cc(NC(=O)NC3CCCCC3)ccc2O1	-25	-10
CCC(=O)N1C[C@H](O)COC[C@H]2O[C@@H](CC(=O)NCc3ccccc3Cl)CC[C@@H]21	3	-5
O=C(NCC1CC1)[C@H]1[C@H](CO)[C@H]2Cn3c(cccc3=O)[C@@H]1N2C(=O)c1cccnc1	4	6
COc1ccc(NC(=O)Nc2ccc3c(c2)C(=O)N([C@@H](C)CO)C[C@@H](C)[C@H](CN(C)C)OCCCC[C@H](C)O3)cc1	3	4
C[C@@H]1CN([C@@H](C)CO)C(=O)Cc2cc(N(C)C)ccc2O[C@@H]1CN(C)Cc1ccc(Cl)c(Cl)c1	?	.
O=C(NC1CCC1)[C@@H]1[C@@H](CO)[C@@H]2Cn3c(ccc(C4=CCCC4)c3=O)[C@@H]2N1C(=O)C1CCCC1	-1	11
CO[C@@H]1CN(C)C(=O)c2cc(NS(C)(=O)=O)ccc2OC[C@@H](C)N(CCC(F)(F)F)C[C@H]1C	-1	2
C[C@@H]1CN([C@H](C)CO)C(=O)c2cc(-c3cccc(C#N)c3)cnc2O[C@H]1CN(C)Cc1ccncc1	14	14
C[C@H]1CN([C@@H](C)CO)C(=O)c2cc(/C=C/c3ccccc3)cnc2O[C@@H]1CN(C)S(=O)(=O)c1ccccc1	-32	-27
C[C@H](CO)N1C[C@H](C)[C@@H](CN(C)CC2CCCCC2)Oc2ccc(NC(=O)C3CC3)cc2CC1=O	-16	0
COc1ccc(S(=O)(=O)N(C)C[C@@H]2Oc3ccc(NS(=O)(=O)c4cccs4)cc3C(=O)N([C@H](C)CO)C[C@@H]2C)cc1	6	11
O=C(C[C@@H]1C=C[C@H](NS(=O)(=O)c2ccc(F)cc2)[C@@H](CO)O1)NC1CCC1	17	17
C[C@H]1CN([C@@H](C)CO)S(=O)(=O)c2ccc(Br)cc2O[C@H]1CN(C)CC1CC1	-5	-8
N#C[C@H]1[C@H](c2ccc(C3=CCCC3)cc2)[C@H](CO)N1c1nc(-c2ccccc2)cs1	0	6
C[C@@H]1CN([C@H](C)CO)C(=O)c2cc(NS(=O)(=O)c3cccs3)ccc2O[C@H]1CN(C)Cc1ccc(C(=O)Nc2ccccc2N)cc1	9	1
C[C@@H]1CCCCO[C@@H](CN(C)S(=O)(=O)c2cn(C)cn2)[C@@H](C)CN([C@@H](C)CO)C(=O)c2cc(NC(=O)CCCN(C)C)ccc2O1	13	11
C[C@H](CO)N1C[C@H](C)[C@H](CN(C)C(=O)Cc2cccnc2)Oc2cc(C#CC3(O)CCCC3)ccc2S1(=O)=O	35	1
CCCNC(=O)C[C@@H]1CC[C@H]2[C@@H](COC[C@H](O)CN2Cc2cccc(F)c2)O1	-3	0
C[C@@H]1CN([C@@H](C)CO)C(=O)c2cc(NC(=O)Nc3ccc4c(c3)OCO4)ccc2O[C@H]1CN(C)Cc1ccc(Oc2ccccc2)cc1	-33	-21
CN1[C@@H]2c3ccc(/C=C/c4ccccc4)c(=O)n3C[C@@H]2[C@@H](CO)[C@@H]1C(=O)NC1CCCC1	-6	6
NCC[C@H]1CC[C@H](NC(=O)CCN2CCCCC2)[C@@H](CO)O1	1	8
C[C@H](CO)N1C[C@H](C)[C@@H](CN(C)S(C)(=O)=O)Oc2ccc(NS(=O)(=O)c3cn(C)cn3)cc2C1=O	-10	-15
C[C@@H]1CCCCO[C@H](CN(C)C(=O)Cc2ccccc2)[C@H](C)CN([C@@H](C)CO)C(=O)c2cc(NC(=O)Nc3cccc4ccccc34)ccc2O1	7	9
C[C@H]1CCCCO[C@H](CN(C)C(=O)Nc2ccc3c(c2)OCO3)[C@@H](C)CN([C@@H](C)CO)C(=O)c2cc(NS(C)(=O)=O)ccc2O1	28	34
CN(C)C(=O)c1cccc(-c2ccccc2[C@H]2[C@H](C#N)N(C(=O)C3CC3)[C@H]2CO)c1	-8	-5
C[C@@H]1CN([C@H](C)CO)C(=O)c2cccc(NS(=O)(=O)c3ccccc3)c2O[C@H]1CN(C)C	7	1
CN(C)C(=O)[C@@H]1[C@@H](CO)[C@@H]2Cn3c(ccc(C4=CCCCC4)c3=O)[C@H]1N2Cc1ccccc1F	-2	2
CCN1[C@H](C(=O)N(C)C)[C@@H](CO)[C@@H]2Cn3c(ccc(-c4cccc(C(=O)N(C)C)c4)c3=O)[C@@H]21	3	11
COc1ccccc1C(=O)N1C[C@H]2[C@@H](c3ccccc31)[C@H](CO)N2C(=O)C1CCOCC1	-3	15
CO[C@H]1CN(C)C(=O)c2ccc(NS(C)(=O)=O)cc2OC[C@@H](C)NC[C@H]1C	2	5
C[C@@H]1CCCCO[C@H](CN(C)C(=O)Nc2ccccc2)[C@@H](C)CN([C@@H](C)CO)C(=O)c2cc(NS(=O)(=O)c3ccc(Cl)cc3)ccc2O1	-15	-24
O=C(CCN1CCCCC1)N[C@H]1CC[C@@H](CC(=O)N2CCC(Cc3ccccc3)CC2)O[C@H]1CO	2	0
O=C(Nc1ccc(Cl)cc1)N[C@@H]1CC[C@@H](CCn2cc(Cc3ccccc3)nn2)O[C@@H]1CO	5	2
C[C@@H]1CN([C@@H](C)CO)C(=O)c2cc(NC(=O)Nc3ccc(F)cc3)ccc2O[C@H]1CN(C)C	-3	0
C[C@@H]1CN([C@H](C)CO)C(=O)Cc2cc(NS(=O)(=O)c3ccc(Cl)cc3)ccc2O[C@H]1CN(C)S(=O)(=O)c1cn(C)cn1	19	14
COc1ccc2c3c(n(C)c2c1)[C@H](CO)N(C(=O)C1CCCC1)CC31CN(Cc2cccc(F)c2)C1	-24	-16
Cc1ccc(S(=O)(=O)Nc2ccc3c(c2)C(=O)N([C@H](C)CO)C[C@@H](C)[C@@H](CN(C)Cc2ccc(-c4ccccc4)cc2)O3)cc1	?	.
COc1ccc(NC(=O)Nc2ccc3c(c2)C(=O)N([C@H](C)CO)C[C@H](C)[C@H](CN(C)S(=O)(=O)c2ccccc2)OCCCC[C@@H](C)O3)cc1	16	4
O=C(NCC[C@H]1CC[C@H](NC(=O)C2CCC2)[C@@H](CO)O1)c1cnccn1	?	.
COc1ccccc1NC(=O)N1C[C@@H](O)COC[C@@H]2O[C@H](CC(=O)NCCc3ccncc3)CC[C@H]21	8	5
C[C@@H]1CN([C@H](C)CO)C(=O)Cc2cc(NC(=O)C3CCCCC3)ccc2O[C@@H]1CN(C)S(=O)(=O)c1cccs1	0	-4
O=C(N[C@@H]1CC[C@H](CCn2cc(-c3ccccc3F)nn2)O[C@@H]1CO)c1ccc2c(c1)OCO2	-9	-3
O=C(C[C@@H]1CC[C@@H]2[C@H](COC[C@H](O)CN2Cc2cccc(Cl)c2)O1)NCc1cccc(F)c1	?	.
CN(C)C(=O)C[C@H]1CC[C@H]2[C@@H](COC[C@H](O)CN2Cc2ccc(C(F)(F)F)cc2)O1	-10	1
Cc1ccccc1S(=O)(=O)NCC[C@@H]1CC[C@@H](NC(=O)C2CCOCC2)[C@@H](CO)O1	6	4
O=C(CN1CCOCC1)NCC[C@H]1CC[C@@H](NC(=O)c2ccccc2F)[C@H](CO)O1	7	0
C#CCNC(=O)C1=C[C@H](c2ccc(Br)cc2)C[C@H](OCCCCO)O1	-2	4
CC(=O)N(C)C[C@@H]1Oc2ncc(-c3ccccc3F)cc2C(=O)N([C@H](C)CO)C[C@@H]1C	3	-1
O=C(C1CCCC1)N1CC(=O)N2[C@H](CO)[C@@H](c3ccc(C#CCc4ccccc4)cc3)[C@H]2C1	2	5
CO[C@@H]1CN(C)C(=O)c2ccc(NC(=O)c3cccc(F)c3)cc2OC[C@@H](C)N(CC2CC2)C[C@H]1C	14	3
CCC(=O)N[C@@H]1CC[C@H](CCNS(=O)(=O)c2ccc(Cl)cc2)O[C@@H]1CO	1	-2
Cc1noc(C)c1NC(=O)N(C)C[C@H]1Oc2c(NS(=O)(=O)c3ccc(Cl)cc3)cccc2C(=O)N([C@@H](C)CO)C[C@H]1C	9	4
COCC(=O)Nc1ccc2c(c1)C(=O)N(C)C[C@H](OC)[C@H](C)CN(C(=O)c1ccccc1F)[C@H](C)CO2	24	14
C[C@H](CO)N1C[C@H](C)[C@@H](CN(C)S(=O)(=O)c2ccc(Cl)cc2)Oc2ccc(NS(=O)(=O)c3cccs3)cc2CC1=O	-4	2
COc1ccc(NC(=O)Nc2ccc3c(c2)CC(=O)N([C@H](C)CO)C[C@H](C)[C@@H](CN(C)S(=O)(=O)c2ccc(F)cc2)O3)cc1	-2	0
CC(C)C#Cc1cnc2c(c1)C(=O)N([C@H](C)CO)C[C@@H](C)[C@H](CN(C)C(=O)c1cccc(F)c1)O2	-5	-19

Sorted by formula weight (ascending): some entries from above
Structure	Vaccinia stage	Vaccinia stage Venus
O=C(NCC[C@H]1CC[C@H](NC(=O)C2CCC2)[C@@H](CO)O1)c1cnccn1	?	.
CCC(=O)N[C@@H]1CC[C@H](CCNS(=O)(=O)c2ccc(Cl)cc2)O[C@@H]1CO	1	-2
CN(C)C(=O)C[C@H]1CC[C@H]2[C@@H](COC[C@H](O)CN2Cc2ccc(C(F)(F)F)cc2)O1	-10	1
O=C(C1CCCC1)N1CC(=O)N2[C@H](CO)[C@@H](c3ccc(C#CCc4ccccc4)cc3)[C@H]2C1	2	5
CC(C)C#Cc1cnc2c(c1)C(=O)N([C@H](C)CO)C[C@@H](C)[C@H](CN(C)C(=O)c1cccc(F)c1)O2	-5	-19
COc1ccccc1NC(=O)N1C[C@@H](O)COC[C@@H]2O[C@H](CC(=O)NCCc3ccncc3)CC[C@H]21	8	5
Cc1noc(C)c1NC(=O)N(C)C[C@H]1Oc2c(NS(=O)(=O)c3ccc(Cl)cc3)cccc2C(=O)N([C@@H](C)CO)C[C@H]1C	9	4
Cc1ccc(S(=O)(=O)Nc2ccc3c(c2)C(=O)N([C@H](C)CO)C[C@@H](C)[C@@H](CN(C)Cc2ccc(-c4ccccc4)cc2)O3)cc1	?	.
COc1ccc(NC(=O)Nc2ccc3c(c2)CC(=O)N([C@H](C)CO)C[C@H](C)[C@@H](CN(C)S(=O)(=O)c2ccc(F)cc2)O3)cc1	-2	0
C[C@H](CO)N1C[C@H](C)[C@@H](CN(C)S(=O)(=O)c2ccc(Cl)cc2)Oc2ccc(NS(=O)(=O)c3cccs3)cc2CC1=O	-4	2

The listing continues:
Structure	Vaccinia stage	Vaccinia stage Venus
C[C@H](CO)N1C[C@H](C)[C@@H](CN(C)C(=O)CN2CCOCC2)Oc2cc(/C=C/c3ccccc3)ccc2S1(=O)=O	-26	-20
Cc1noc(C)c1NC(=O)N[C@@H]1CC[C@@H](CC(=O)NCc2ccc(Cl)c(Cl)c2)O[C@@H]1CO	6	4
CCc1cnc(N2[C@H](C#N)[C@@H](c3ccc(C#CC(C)C)cc3)[C@@H]2CO)s1	-12	-6
C[C@@H]1CN([C@H](C)CO)C(=O)c2cc(NS(=O)(=O)c3ccccc3)ccc2O[C@H]1CN(C)Cc1ccc2c(c1)OCO2	0	-13
COc1ccccc1CNC(=O)C[C@H]1C[C@@H]2c3cc(NS(=O)(=O)c4ccc(F)cc4)ccc3O[C@@H]2[C@@H](CO)O1	-31	-26
CCCNC(=O)N(C)C[C@@H]1Oc2ncc(C#CC3CC3)cc2C(=O)N([C@@H](C)CO)C[C@@H]1C	21	7
Cc1noc(C)c1NC(=O)Nc1ccc2c(c1)C(=O)N([C@@H](C)CO)C[C@H](C)[C@@H](CN(C)S(=O)(=O)c1ccccc1)OCCCC[C@@H](C)O2	29	6
C[C@@H]1CN([C@H](C)CO)S(=O)(=O)c2ccc(C#CC3(O)CCCC3)cc2O[C@@H]1CN(C)C	6	5
CCC(=O)N1CC2(C1)[C@H](c1ccc(C3=CCCC3)cc1)[C@H](CO)N2C(=O)COC	15	19
CN(C)C(=O)C[C@H]1CC[C@H](NS(=O)(=O)c2ccccc2)[C@H](CO)O1	1	-3
C[C@H](CO)N1C[C@H](C)[C@H](CN(C)S(=O)(=O)c2cccs2)Oc2ccc(NS(=O)(=O)c3cn(C)cn3)cc2CC1=O	12	7
COc1ccc(-c2ccc([C@H]3[C@H](CO)N4C(=O)CN(C(=O)C5CCCC5)C[C@@H]34)cc2)cc1	-13	-9
Cc1ccc(S(=O)(=O)N(C)C[C@@H]2Oc3ccc(NC(=O)Nc4ccc5c(c4)OCO5)cc3C(=O)N([C@@H](C)CO)C[C@@H]2C)cc1	11	2
C[C@H](CO)N1C[C@H](C)[C@@H](CN(C)C(=O)Nc2ccc(F)cc2)Oc2ccc(NS(=O)(=O)c3ccc(F)cc3)cc2CC1=O	15	17
COc1ccc2c3c(n(C)c2c1)[C@@H](CO)N(CC1CCOCC1)CC31CCN(C(C)=O)CC1	17	10
C[C@H]1CN([C@@H](C)CO)C(=O)c2cccc(NC(=O)Nc3ccccc3)c2O[C@H]1CN(C)S(C)(=O)=O	6	8
